From PubChem
VDR inh: inhibitors of human vitamin D receptor | P11473 | AID 504847 | Potency, µM, without a hit: max response, negative = inhibition, most hits filed as inhibitors | VDR-SRC2-3 peptide fluorescence polarization, 2 h | 400,000 tested, 0.93% active; active = well fitted inhibition curve with a large enough effect; inconclusive = small, poorly fitted or top-dose-only effect, or another doubt; inactive = no such curve, though single readings can be large or run the other way; note: series mostly up to about 120 µM
Target sequence (P11473 whole entry, looked up): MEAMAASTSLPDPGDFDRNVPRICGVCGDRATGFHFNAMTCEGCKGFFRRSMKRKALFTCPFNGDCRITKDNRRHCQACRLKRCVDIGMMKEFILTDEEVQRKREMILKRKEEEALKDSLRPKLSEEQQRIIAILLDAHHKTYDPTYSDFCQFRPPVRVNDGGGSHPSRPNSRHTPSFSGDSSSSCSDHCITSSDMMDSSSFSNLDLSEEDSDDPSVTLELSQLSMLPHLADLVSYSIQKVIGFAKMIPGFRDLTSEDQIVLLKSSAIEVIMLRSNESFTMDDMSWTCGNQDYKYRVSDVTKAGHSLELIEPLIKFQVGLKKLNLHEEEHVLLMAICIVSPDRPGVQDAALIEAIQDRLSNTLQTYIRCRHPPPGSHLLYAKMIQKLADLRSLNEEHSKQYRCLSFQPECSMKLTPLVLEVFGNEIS
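After 23 nl compound addition and a short centrifugation, plates sat for 2 hours at ambient temperature; polarization of fluorescence then indicated loss of VDR binding to peptide SRC2-3.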
Active calls of the source: *; u = inconclusive. % is set by controls: 0 for no effect and ±100 for the full control effect; potency is the fitted concentration of half-maximal effect. Some of the compounds tested, so the mix of outcomes need not match the whole.

VDR inh	molecule
8.91µM*	N#CC(C#N)=NNc1ccc(S(=O)(=O)N2CCCCC2)cc1
0.2%	CCCC(=O)Nc1ccc2c(c1)nc(CCNC(=O)c1ccco1)n2C
-0.6%	Cc1c(-c2ccccc2)[n+](=O)c2c(n1[O-])CCCC2
-7.9%	Fc1ccc(NC(=S)Nc2cccc(Cl)c2)cc1
-7.4%	O=C1c2cccnc2C(=O)N1Cc1ccc(S(=O)(=O)N2CCOc3ccc(Cl)cc32)cc1
-12.1%	CCOC(=O)c1c(CN(C)C)n(-c2ccc(C)cc2)c2cc(Br)c(O)cc12
11.9%	Cc1ccc(C)c(N(C(=O)CNC(=O)c2ccco2)C(C(=O)NC2CCCCC2)c2ccncc2)c1 (stereo not given)
-17.0%	CCC(C)(C)NC(=O)C1CC(=O)N(CCc2ccc(F)cc2)C1 (stereo not given)
-16.2%	Cc1nc2nc[nH]n2c(=O)c1NS(=O)(=O)c1ccc([N+](=O)[O-])cc1
-14.3%	O=C(Nc1ccccc1N1CCOCC1)c1ccc(S(=O)(=O)NCc2ccco2)cc1
-11.7%	CCC(C)c1ccc(S(=O)(=O)N2CCN(C(C)CC(=O)O)CC2)cc1 (stereo not given)
-7.1%	CCOc1ccc(NC(=O)CSc2nc(-c3ccc(F)cc3)cc(C(F)(F)F)c2C#N)cc1
-8.2%	CC1CN(C(=O)COC(=O)c2ccc(N(C)C)cc2)CC(C)O1 (stereo not given)
u	CCCn1c(C(C)Nc2nc(-c3ccc(C)cc3)cs2)nc2cc(Cl)c(N3CCCCC3)cc21 (stereo not given)
-2.1%	O=S(=O)(NC1CCCCC1)c1ccc(Br)cc1
-6.3%	C=CCN(CC=C)C(=S)NC(=O)c1ccc(-c2ccccc2)cc1
-7.6%	Cc1ccc(NC2CCCN(C(=O)c3ccoc3C)C2)cc1C (stereo not given)
-6.1%	C/C(CC(=O)Nc1cc(C)ccn1)=N\NC(=O)c1ccccc1C
-3.1%	Cc1ccc(CC(=O)Nc2ncc([N+](=O)[O-])s2)cc1
-16.2%	C[C@H](CO)N1C[C@H](C)[C@@H](CN(C)S(=O)(=O)c2cccs2)Oc2ccc(NC(=O)Cn3cnnn3)cc2C1=O
-7.5%	O=C(C1CCN(S(=O)(=O)c2ccccc2F)CC1)N1CCc2ccccc21
-9.1%	O=c1[nH]c2ccccc2cc1-c1nnn(-c2ccc(F)cc2)n1
-4.5%	CC(C)(C)C(=O)Nc1cc(NC(=O)C(C)(C)C)cc(C(=O)Nc2cc(C(=O)O)cc(C(=O)O)c2)c1
9.1%	CCOC(=O)c1ccc(NC(=S)N(CCN2CCCCCC2)Cc2ccco2)cc1
-1.7%	Cc1cccn2c(=O)c(/C=C(\C#N)C(=O)NC3CCS(=O)(=O)C3)c(N3CC(C)OC(C)C3)nc12 (stereo not given)
-14.3%	O=[n+]1c2c(n([O-])c3cc(F)c(N4CCCC4)cc31)CCC2
-3.3%	CC(=O)Nc1cccc(NC(=O)Nc2ccc(C(C)=O)cc2)c1
-14.5%	CC(C)C(=O)NC(C)C(c1cccs1)N1CCN(c2ccccc2)CC1 (stereo not given)
35.5µM*	Nc1nc(-c2cccc(F)c2)cs1
27.9%	CCOC(=O)c1c(NC(=O)Cn2cc([N+](=O)[O-])cn2)sc2c1CCC2

Four of these compounds, set out differently:
> CCOC(=O)c1ccc(NC(=S)N(CCN2CCCCCC2)Cc2ccco2)cc1
- VDR inh: 9.1%
> Cc1cccn2c(=O)c(/C=C(\C#N)C(=O)NC3CCS(=O)(=O)C3)c(N3CC(C)OC(C)C3)nc12 (stereo not given)
- VDR inh: -1.7%
> O=[n+]1c2c(n([O-])c3cc(F)c(N4CCCC4)cc31)CCC2
- VDR inh: -14.3%
> CC(=O)Nc1cccc(NC(=O)Nc2ccc(C(C)=O)cc2)c1
- VDR inh: -3.3%

(further entries)
VDR inh	molecule
-2.1%	COc1cc(/C=N/NC(=O)c2cc[n+]([O-])cc2)ccc1O
3.8%	CCOC(=O)Nc1ccc2c(c1)N(C(=O)CN(CC)CC)c1ccccc1CC2
-8.6%	CCOC(=O)c1cc(C(=O)NNC(=O)c2cccc([N+](=O)[O-])c2)c(C)nc1C
20.7%	COC(=O)C1=C(N)Oc2cc(C)n(CC3CCCO3)c(=O)c2C1c1ccccc1OC (stereo not given)
3.8%	CC(C)NC(=O)N(C)C[C@H]1Oc2c(cccc2N(C)C)C(=O)N([C@H](C)CO)C[C@@H]1C
7.0%	CCS(=O)(=O)N1CC(=O)N(c2cccc(Cl)c2)C(C)(C(=O)NC2CCCCCC2)C1 (stereo not given)
5.5%	O=C(COC(=O)CCC(=O)c1cccs1)NCCc1ccccc1
4.8%	O=C(Cn1c(-c2cccs2)cc2ccccc21)NCCc1ccc(Cl)cc1
10.1%	COc1ccc(C2=NNC(c3cccs3)=Nc3ccc(OC)cc32)cc1
7.8%	Cc1ccc(S(=O)(=O)N2CCC(C(=O)NCCc3ccccn3)CC2)cc1
11.4%	Cc1ccc(C(=O)NCCC(C)C)cc1NC(=O)c1nsc2ccccc12
-9.5%	Cc1ccc(C)c(NC(=O)CSc2nc(C)cs2)c1
-13.5%	Cc1cc2c(cc1C)N(Cc1ccc(Cl)cc1)C1=NCCCN12
3.3%	O=C(Nc1cccc2c1CCCC2)c1ccc(F)cc1
u	CC(=O)N1CC(C)Sc2ccc(S(=O)(=O)NCCc3cccc(C)c3)cc21 (stereo not given)
4.5%	O=c1[nH]c(SCc2nc3c(cnn3-c3ccccc3)c(=O)[nH]2)nc2ccccc12
9.6%	O=C(Nc1ccc(N2CCCC2)c(Cl)c1)c1cccc(-c2cc3ccccc3oc2=O)c1
11.6%	O=C(CN1C(=O)COc2ccc(Cl)cc21)Nc1ccc(N2CCOCC2)cc1
-8.7%	COc1ccc(CNC(=O)C(=O)Nc2ccc(OC)cc2OC)cc1
5.9%	CC1CCCC(C)N1C(=O)COC(=O)/C=C/c1ccco1 (stereo not given)
13.1%	CCCN(C(=O)Cn1cnc2onc(-c3ccc(F)cc3)c2c1=O)c1cccc(Cl)c1
20.8%	CN(CC(=O)Nc1c(Cl)cccc1Cl)C(=O)c1ccc2nc[nH]c2c1
3.8%	CCOC(=O)c1nc2cc3n(c(CC(C)C)c-2c1C)CC(C)=C3C
3.7%	CC1CCCCN1CCCOC(=O)c1ccccc1 (stereo not given)
-2.0%	COc1ccc2nc(N/C(=N/S(=O)(=O)c3cccs3)c3ccccc3Cl)sc2c1
-6.7%	COc1ccc(N2CCN(C(=O)NC3CCCCC3)CC2)cc1
-1.7%	Cc1[nH]c2ccccc2c1C(=O)CN1CC(C)OC(C)C1 (stereo not given)
8.1%	Cc1ccccc1C(=O)Nc1nnc2n1CCS2
-9.9%	COc1ccc2nc(-c3ccc(Cl)cc3)cc(C(=O)O)c2c1
5.1%	CCOc1ccc(N(C(=O)c2ccc(S(=O)(=O)N3CCCC3)cc2)C2C=CS(=O)(=O)C2)cc1 (stereo not given)
-11.7%	COc1cc2c(cc1OC)C(c1cc3cc4c(cc3[nH]c1=O)OCO4)N(C(=O)C1CC1)CC2 (stereo not given)
6.6%	CC(C)Oc1ccc(CNC(=O)c2ccc3nc(N4CCOCC4)sc3c2)cc1
u	O=C(/C=C/Nc1ccccc1)C(F)(F)F
16.3%	Cc1ccc(-c2noc(-c3ccc(NCC4CCCO4)c([N+](=O)[O-])c3)n2)cc1 (stereo not given)
-4.9%	O=c1c2ccccc2ncn1Cc1ccc(Cl)cc1
12.8%	Cc1ccc(NC(=O)Nc2ccc3c(c2)OCO3)c(Br)c1
-15.1%	CN(C)CCN(Cc1ccco1)S(=O)(=O)c1csc(C(N)=O)c1
10.3%	CCC1(C)Cc2c(sc3nc(SC)n(Cc4ccccc4)c(=O)c23)CO1 (stereo not given)
-20.9%	Cc1ccc(NC(=O)CSCC(=O)NCc2ccco2)cc1
u	C=CCSc1nccc(=O)[nH]1
-5.5%	CSCCC(NS(=O)(=O)/C=C/c1ccccc1)C(=O)NCCc1ccc(S(N)(=O)=O)cc1 (stereo not given)
-0.9%	CCOC(=O)C1=C(c2ccccc2)NC(=O)NC1c1ccc(OC)c(OC)c1 (stereo not given)
2.7%	Cc1cc(C(C)(C)C)oc1C(=O)Nc1ccc(CC(=O)O)cc1
-4.1%	COc1ccc(CNC(=O)c2ccc3c(c2)nc2n3CCCCC2)c(OC)c1
6.6%	Cc1ccc(-c2nnc3sc(-c4ccncc4)nn23)cc1
15.0%	O=C(COc1cc2oc(=O)c3c(c2cc1Cl)CCC3)NCc1ccccn1
-9.8%	CC(C)c1ccc(OCC(=O)NN2C(=O)c3ccccc3C2=O)c(Br)c1
-22.0%	COc1ccc(-c2oc3cc(OC(C)=O)cc(OC(C)=O)c3c(=O)c2OC)cc1
-9.9%	O=C(O)C1CCCCC1C(=O)Nc1cc(Cl)ccc1Cl (stereo not given)
-5.4%	CCC1(c2ccccc2)NC(=O)NC1=O (stereo not given)
-23.8%	Cc1csc(NC(=O)[C@@H]2CCCN2C(=O)c2cccs2)n1
-4.9%	O=C(NCc1nc2ccccc2[nH]1)C1=C[C@H](c2ccccc2)C[C@H](OCCCCO)O1
-14.8%	O=C(CCCn1cc([N+](=O)[O-])cn1)Nc1cccnc1
u	Cc1ccc(SC(=O)COc2ccccc2C)cc1
0.9%	Cc1cc(C(F)(F)F)nc2c(Cl)c(C(C)(C)C)nn12
-11.1%	C[C@H](CCC(=O)O)C1CC[C@H]2C3CC[C@@H]4C[C@H](O)CC[C@]4(C)C3C[C@H](O)[C@]12C (stereo not given in full)
-21.9%	O=C(Nc1ncc(Cc2cccc(C(F)(F)F)c2)s1)c1ccc(-c2cccc([N+](=O)[O-])c2)o1
9.2%	COc1cccc(/C=N/NC(=O)CO/N=C(\C)c2cccs2)c1OC
-17.0%	O=C1CC(CSc2ccc(Cl)cc2)=NN1
-4.5%	COc1ccc(N(CC(=O)NCCSCc2c(F)cccc2Cl)S(C)(=O)=O)cc1OC

(more compounds)
VDR inh	molecule
9.6%	O=C(CC(c1ccco1)C1CCCCC1=O)c1ccco1 (stereo not given)
-13.0%	CCCCOc1ccc(CN2CCSCC2)cc1
-0.6%	Cc1nn(C)c(C)c1NS(=O)(=O)c1ccc(N2CCCC2=O)cc1
-11.7%	CCCCN1C(Nc2ccccc2)=NC[C@@H]1Cc1ccccc1
-1.0%	CC(=O)c1ccc(Oc2ncnc3sccc23)cc1
-25.1%	COc1ccc(N(CC(=O)NC2CCCC2)C(=O)Cn2nnc(-c3ccc(C)cc3)n2)cc1
14.2%	CC1CCN(C(=O)Cn2c(-c3cccs3)cc3cc(Cl)ccc32)CC1
5.4%	CCOc1ccc(-n2c(=O)c3c4c(sc3n(CC(=O)Nc3cccc(C(F)(F)F)c3)c2=O)CCCCC4)cc1
-22.0%	CCc1nc(CN2CCCC(C(=O)c3ccc4c5c(cccc35)CC4)C2)c(C)[nH]1 (stereo not given)
2.6%	OCCC1CN(Cc2nc(-c3ccc(F)cc3)cs2)CCN1CCc1ccccc1 (stereo not given)
3.9%	O=C(COC(=O)C1CCC1)NCc1ccc(Cl)cc1Cl
-0.5%	CN(C)CCN1C(=O)C(=O)/C(=C(/O)c2ccc3c(c2)OCCO3)C1c1ccccn1 (stereo not given)
-15.2%	CCOc1ccccc1N(C(=O)c1snc(C(N)=O)c1N)C(C(=O)NC1CCCC1)c1ccco1 (stereo not given)
4.2%	Cc1ccccc1NC(=O)c1ccc2c(c1)C(=O)N(CC(C)C)C2=O
15.1%	CCCCNC(=O)C1COc2ccccc2O1 (stereo not given)
5.6%	Cc1noc(C)c1NC(=O)Nc1cccc2c1O[C@H](CN(C)S(=O)(=O)c1cn(C)cn1)[C@@H](C)CN([C@H](C)CO)C2=O
-5.8%	CCOC(=O)C1CC(CN2C(=O)c3ccccc3C2=O)OC1=O (stereo not given)
-1.2%	Nc1ncc(-c2ccccc2)c(-c2ccc(O)cc2O)n1
-4.2%	COc1ccc(N(CC(=O)NCCSc2ccccn2)S(=O)(=O)c2ccccc2)c(OC)c1
14.3%	CCCCC(=O)Nc1nnc(SCc2cc(=O)n3cc(C)ccc3n2)s1
-10.9%	CCOC(=O)CC1C(=O)NCCN1C1CCCC1 (stereo not given)
-2.2%	COc1ccc(NC(=O)c2cc3c(=O)n(Cc4cccs4)ccc3nc2C)cc1
-4.8%	N#Cc1ccc(CSCC(=O)O)cc1
6.1%	CC(c1ccccc1)N1CC(C(=O)NC2CCCC2)CC1=O (stereo not given)
-8.8%	Cc1ccc(/C=c2\sc3nc(-c4ccco4)nn3c2=O)o1
-10.4%	Cc1ccc(C)c(OCC(=O)NNC(=O)C2CC2)c1
-12.8%	Cc1ccnc(SCc2ccc([N+](=O)[O-])cc2)n1
-3.1%	O=C(Nc1ccc(Br)cc1)c1ccc(F)c(S(=O)(=O)NCc2cccs2)c1
8.6%	COC(=O)c1ccc(CNC(=O)Cn2cnnn2)cc1
-0.1%	COc1ccc(-c2csc(NC(=O)c3ccccc3F)c2C(=O)O)cc1

A different layout for part of the listing above:
mol: CC1CCN(C(=O)Cn2c(-c3cccs3)cc3cc(Cl)ccc32)CC1
  VDR inh: 14.2%
mol: Cc1noc(C)c1NC(=O)Nc1cccc2c1O[C@H](CN(C)S(=O)(=O)c1cn(C)cn1)[C@@H](C)CN([C@H](C)CO)C2=O
  VDR inh: 5.6%

Next part.
VDR inh	molecule
-1.6%	CCOC(=O)C1=C(CN2CCN(c3cccc(OC)c3)CC2)NC(=O)NC1c1ccc(OC)cc1 (stereo not given)
-9.1%	NC(=O)C1CCN(Cc2cccc(OCc3ccccc3)c2)CC1
3.5%	CN(C)C(CNC(=O)C1CCCN(C(=O)c2ccc(Cl)cc2)C1)c1ccco1 (stereo not given)
10.0%	C/C(=N\NC(=O)c1ccoc1C)c1ccc(Br)s1
